Source: PubChem BioAssay (several laboratories)
Mtb betalactam: beta-lactam sensitization of Mtb H37Rv | M. tuberculosis H37Rv growth with meropenem, percent inhibition; hits of this screen are not shown here | inhibition, % at 25 µM | 0.27% of 330,000 active | AID 434955;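 active means about 74% or more and at least 40 points above the plate without the antibiotic, then above 30% in a dose series; inconclusive means first-round hits that could not be retested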;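 further: growth measured after seven days incubation then overnight dye step; 0% = bacteria only wells and 100% = bacteria with antibiotic; twin plates without the antibiotic show which effects depend on it; some results filed as inactive read as strong as hits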
RecA splice inh: inhibitors of M. tuberculosis RecA intein splicing. P9WHJ3. cell-free RecA intein splicing, fluorescence. inhibition, %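 (about 9 µM by stock and volumes)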. 0.75% of 290,000 active. AID 2221; in the data active means inhibition above about 30%; inconclusive means no clear call, values can overlap the other calls;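 further: 0% = vehicle wells and 100% = reference inhibitor control wells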
Target sequence (P9WHJ3 whole entry, looked up, canonical isoform): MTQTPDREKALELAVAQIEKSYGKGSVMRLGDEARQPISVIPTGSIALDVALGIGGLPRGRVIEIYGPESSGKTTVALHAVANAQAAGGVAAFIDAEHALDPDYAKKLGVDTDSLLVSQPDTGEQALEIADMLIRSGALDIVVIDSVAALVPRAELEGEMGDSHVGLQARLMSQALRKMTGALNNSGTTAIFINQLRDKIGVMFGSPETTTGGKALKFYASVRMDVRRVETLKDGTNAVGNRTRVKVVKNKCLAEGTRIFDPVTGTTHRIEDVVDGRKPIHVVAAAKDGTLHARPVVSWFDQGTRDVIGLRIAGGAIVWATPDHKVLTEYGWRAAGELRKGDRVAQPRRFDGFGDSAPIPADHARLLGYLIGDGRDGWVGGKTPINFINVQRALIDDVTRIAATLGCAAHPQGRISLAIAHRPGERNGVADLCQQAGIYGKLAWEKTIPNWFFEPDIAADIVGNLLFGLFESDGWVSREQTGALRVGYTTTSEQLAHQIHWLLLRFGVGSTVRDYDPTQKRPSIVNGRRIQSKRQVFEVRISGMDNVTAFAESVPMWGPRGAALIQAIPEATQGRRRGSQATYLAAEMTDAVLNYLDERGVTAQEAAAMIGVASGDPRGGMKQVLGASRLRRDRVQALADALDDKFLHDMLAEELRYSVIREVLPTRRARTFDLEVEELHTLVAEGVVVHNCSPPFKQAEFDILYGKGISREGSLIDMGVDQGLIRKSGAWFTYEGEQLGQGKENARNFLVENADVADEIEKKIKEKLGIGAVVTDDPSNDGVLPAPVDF
Arbovirus anti: blocks arbovirus infection; arbovirus infection cell-based antiviral screen; inhibition, % at 10 µM; 0.37% of 200,000 active; AID 1251;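 active means inhibition from about 30%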;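 further: bluetongue infection of BSR cells; cell survival read as ATP light after 72 h; 0% = infected wells without compound and 100% = uninfected wells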
Mtb H37Rv: M. tuberculosis H37Rv growth inhibitors, H37Rv strain (AID 1626); M. tuberculosis H37Rv growth inhibition; higher % means a stronger effect; one-dose inhibition, % at 10 µM; IC50 in µM for titrated hits; 0.95% of 220,000 active;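 active means confirmed in a dose series; inconclusive means inhibition above 80% but not taken into the dose series; inactive means below 80% or under 30% at every dose of the series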;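 further: bacteria incubated seven days before Alamar blue readout; 0% = bacteria only wells and 100% = bacteria with antibiotic wells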
YopH PTP inh: blocks Yersinia enterocolitica YopH tyrosine phosphatase | fluorescence Ex485/Em525 | inhibition, %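 (about 10 µM by stock and volumes)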 | 0.16% of 140,000 active | AID 898;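 active means inhibition of 50% or more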;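 further: controls were vehicle for no effect and minimum signal wells for full effect; inactives centre near -20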
Arbovirus anti repeat: further read-out of Arbovirus anti, marked with its call; inhibition, %; measured here: 10K subset replicate screen; many hits read low in the repeat;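 first of two repeat runs on a subset; 0% = infected and 100% = uninfected wells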
Active calls of the source: *; ? = inconclusive; . = no result given. Only part of the results is shown; the hit share may differ from the screen's.

SMILES	Mtb betalactam	RecA splice inh	Arbovirus anti	Mtb H37Rv	YopH PTP inh	others
COC(=O)C1=C(N)Oc2cc(C)[nH]c(=O)c2C1c1cccnc1 (stereo not drawn)	-1	-2.8	10	-2%	-5
O=C(O)CN1C(=O)/C(=C/C=C/c2ccccc2)SC1=S	-14	0.5	13	-5%	.
c1ccc2c(c1)OCCOCCOCCOCCOc1ccccc1OCCOCCOCCO2	-4	-5.4	12	0%	6
CC(C)(C)n1nnnc1C(c1ccc2ncccc2c1)N1CCSCC1 (stereo not drawn)	0	5.2	0	.	-5
COc1ccc(NC(=O)N2CCN(CCC#N)CC2)cc1	0	1.2	5	-20%	-20
Cc1cccc(N2C(=S)NC3c4cc(Cl)ccc4OC2(C)C3C(=O)N(C)C)c1 (stereo not drawn)	-7	-1.9	4	11%	.
Cc1ccc(/C=C2\SC(=S)N(CCC(=O)NCCCN3CCOCC3)C2=O)cc1	3	4.6	.	.	.
O=C(O)C(Oc1ccc2c(-c3ccccc3)cc(=O)oc2c1)c1ccccc1 (stereo not drawn)	-4	-5.1	.	-8%	.
CCn1c(SCC(=O)Nc2cccc(C)n2)nnc1-c1ccco1	2	0.0	4	5%	-30
CNc1cncc(C(=O)O)c1	-4	0.1	1	1%	.

The final six records of the section above open the next one:
SMILES	Mtb betalactam	RecA splice inh	Arbovirus anti	Mtb H37Rv	YopH PTP inh	others
COc1ccc(NC(=O)N2CCN(CCC#N)CC2)cc1	0	1.2	5	-20%	-20
Cc1cccc(N2C(=S)NC3c4cc(Cl)ccc4OC2(C)C3C(=O)N(C)C)c1 (stereo not drawn)	-7	-1.9	4	11%	.
Cc1ccc(/C=C2\SC(=S)N(CCC(=O)NCCCN3CCOCC3)C2=O)cc1	3	4.6	.	.	.
O=C(O)C(Oc1ccc2c(-c3ccccc3)cc(=O)oc2c1)c1ccccc1 (stereo not drawn)	-4	-5.1	.	-8%	.
CCn1c(SCC(=O)Nc2cccc(C)n2)nnc1-c1ccco1	2	0.0	4	5%	-30
CNc1cncc(C(=O)O)c1	-4	0.1	1	1%	.
Cc1ccc(S(=O)(=O)N2CCC(C(=O)OC(C)C(=O)NCc3ccccc3)CC2)cc1C (stereo not drawn)	?	4.3	.	.	.
CCOCCCNC(=S)N1CCN(Cc2ccc3c(c2)OCO3)CC1	1	-1.5	-15	-1%	.
CC(=C/c1ccccc1)/C=N/n1cnnc1	11	-3.1	7	-3%	3
O=C(CN(C(=O)CCC(=O)Nc1nccs1)c1ccc2c(c1)OCO2)NCC1CCCO1 (stereo not drawn)	6	5.2	4	2%	-51
Cc1ccc(N=C2SC(C(=O)O)CC(=O)N2C)cc1C (stereo not drawn)	-16	-1.5	1	-2%	.
COCCCn1c(=S)[nH]c2ccc(N3CCOCC3)cc2c1=O	-22	-41	-5	-3%	.
CN(C)CCNCCCOc1ccccc1-c1ccccc1	5	-2.4	-25	-7%	.
CCN(CC)CCn1c(NCc2ccc(C)o2)nc2ccccc21	5	.	15	.	2
Cc1cc(-c2ccc(Cl)cc2Cl)c(C#N)c(=O)[nH]1	-5	-6.6	.	-3%	.
CCc1ccc2[nH]c(=O)c(C(c3nnnn3Cc3ccc(OC)cc3)N3CCOCC3)cc2c1 (stereo not drawn)	2	-0.7	-2	-4%	-2
COc1ccc(Cc2nc3ccc(C(=O)NCCSC)cc3o2)cc1	-4	-3.0	.	.	.
N#CC(C(=O)NC1CC1)c1nc2ccccc2nc1N1CCN(C/C=C/c2ccccc2)CC1 (stereo not drawn)	7	-17	-8	-4%	0
C[C@]12CCC3C(CCC4=CC(O)CC[C@@]43/C=N/O)C1(O)CCC2C1=CC(=O)OC1 (stereo partly drawn)	-3	6.6	.	.	.
O=C(O)c1c(C(=O)N2N=C3/C(=C/c4ccccc4)CCCC3C2c2ccccc2)cccc1[N+](=O)[O-] (stereo not drawn)	3	5.6	-4	-2%	.
CC(=O)NC(Cc1ccc(C)cc1)C(=O)NC1CCN(C(=O)c2ccc([N+](=O)[O-])cc2)CC1 (stereo not drawn)	-2	-2.0	-4	5%	-26
CCOC(=O)c1c[nH]c2c(Cl)ccc(Cl)c2c1=O	0	-2.8	2	0%	2
CO/N=C(\c1nonc1N)N1CCN(c2ccc([N+](=O)[O-])cc2Cl)CC1	-15	-1.4	-5	-3%	0
NS(=O)(=O)c1ccc(NNC(=O)c2ccc(F)cc2F)cc1	0	-2.8	.	1%	.
CCOc1ccc(-c2cc(C(=O)NN=C3CCN(C)CC3)[nH]n2)cc1	2	-1.2	-5	13%	.
CCCCCCCCCCCCN1[C@@H](CC(=O)OC)c2cc(F)cc(F)c2S1(=O)=O	-5	4.7	.	0%	.
On1nnc2ccc3ccccc3c21	-2	1.0	3	-4%	-27
COc1cccc(CC(=O)OC(C)C(=O)NCc2ccc3c(c2)OCO3)c1 (stereo not drawn)	-15	-1.6	.	.	.
Clc1ccc(-c2nnc3n2CCCC3)cc1	-10	0.1	2	-3%	-39
CC(C)c1[nH]nc2c1C(c1cccs1)C(C#N)=C(N)O2 (stereo not drawn)	-10	62*	-12	-3%	23
O=C(NCc1ccccc1)c1ccc2nc(-c3ccco3)c(-c3ccco3)nc2c1	2	-4.0	1	-4%	-7
CCCCN(C(=O)c1cc2c(s1)CCC2)c1c(N)n(CCCC)c(=O)[nH]c1=O	-6	1.3	.	.	.
COC(=O)c1cccc(NC(=O)/C(=C\c2ccccc2)NC(=O)c2ccccc2Cl)c1	0	-2.6	-8	-2%	-16
CC1(C)Oc2ccc(C(=O)NN)cc2NC1=O	4	-2.0	3	-5%	.
COc1ccc(NC(=O)c2ccc(-c3ccc(C)c4ccccc34)o2)cc1	16	-1.1	10	-2%	-30
CC1CCN(C(=O)CSc2ccc(-c3ccccc3)nn2)CC1	-1	0.8	0	9%	.
CC1CCN(C(=O)c2ccc(N3CC4CC(C3)c3cccc(=O)n3C4)c([N+](=O)[O-])c2)CC1 (stereo not drawn)	0	-3.9	-5	-2%	-16
Nn1c(SCc2ccccc2)nc2c(cnn2-c2ccccc2)c1=O	6	-0.3	-8	3%	.
COc1cc(OC)cc(C(=O)NC(=S)N2C[C@H]3C[C@H](C2)c2cccc(=O)n2C3)c1	5	1.3	.	.	.
CC(C)C[C@H](NC(=O)C1CC(=O)N(c2ccc3c(c2)OCCO3)C1)C(=O)N1CCCCC1 (stereo partly drawn)	-3	-0.7	.	.	.
COc1cccc(C(=O)NC(=S)Nc2ccc(Cl)cc2C(=O)O)c1	-1	-2.4	.	-12%	.
CCCCN(C)C(=O)C(Cc1ccccc1)NS(=O)(=O)c1ccc2c(c1)CCC(=O)N2 (stereo not drawn)	5	.	1	-5%	9	Arbovirus anti repeat=0
COC(=O)CC1(Cc2ccccc2)C(=O)NC(=O)NC1=O	-9	0.3	-2	1%	5
O=C(NC1CCCN(C2Cc3ccccc3C2)C1)c1ccc(F)cc1Cl (stereo not drawn)	8	4.2	.	.	.
CCc1c(O)nc(SCC(=O)Nc2ccccc2OC)n(-c2ccccc2C)c1=O	1	5.3	.	.	.
CSCCC(C(=O)N1C[C@]2(C)C[C@H]1CC(C)(C)C2)N1C(=O)c2ccccc2C1=O (stereo partly drawn)	0	6.7	7	-2%	4
CCOC(=O)CSc1nnc([C@H](CC(C)C)NC(=O)OC(C)(C)C)o1	.	0.8	3	0%	3
CCC(C)NC(=O)C1CCN(S(=O)(=O)N2CCC3(CC2)OCCO3)CC1 (stereo not drawn)	0	0.8	4	4%	.
CCCc1ccc2oc(C(=O)N3CCC(N4CCCC(O)C4)CC3)c(C)c2c1 (stereo not drawn)	-5	-1.3	.	.	.
COc1cc(C(=O)NCc2cn3ccsc3n2)cc(OC)c1OC	1	-0.8	.	-12%	3
COC(=O)CSc1nnc2n1C(C)(C)Cc1ccccc1-2	-7	.	-6	-27%	-40
FC(F)(F)c1cc(NC2CCCCC2)ccn1	2	-2.2	.	.	.
CN(C)c1cc[n+](/C(C(=S)Nc2ccc(SC(F)F)cc2)=C(/[O-])c2ccccc2)cc1	-7	2.0	-2	3%	.
CC(=O)Nc1ccc(S(=O)(=O)Oc2ccc(C=O)cc2)cc1	13	-6.7	5	-1%	-16
COc1cccc(CN2CCNC(=O)C2CC(=O)NC2Cc3ccccc3C2)c1 (stereo not drawn)	-1	4.8	-5	0%	.
COC(=O)c1cccc(NC(=O)CSc2nnc(-c3ccco3)o2)c1	-6	-4.1	.	.	.

Carrying on.
SMILES	Mtb betalactam	RecA splice inh	Arbovirus anti	Mtb H37Rv	YopH PTP inh	others
Cc1nn(C)c(Cl)c1NC(=O)OCc1ccccc1	-11	-1.5	-3	-15%	-39
CC1=C(C(=O)Nc2ccccc2Cl)C(c2ccc(N(C)C)cc2)NC(=O)N1 (stereo not drawn)	5	-3.6	3	4%	-37
Cc1ccc(CN2CCN(Cc3cnn(-c4ccc(Cl)cc4)c3)CC2CCO)o1 (stereo not drawn)	-9	-0.9	-7	-3%	.
O=C(NCc1n[nH]c(=S)n1-c1ccc(Br)cc1)c1ccc(S(=O)(=O)N2CCCC2)cc1	-4	-1.2	11	-4%	.
COc1cccc(COCC(O)CN2CCC(C(N)=O)CC2)c1 (stereo not drawn)	-4	-1.0	.	.	.
O=C(CC(Sc1ccc(Br)cc1)C(=O)O)c1ccc(F)cc1 (stereo not drawn)	63	0.6	.	.	.
COc1ccc(Cl)cc1C(=O)Nc1cccc(-c2ccc3nncn3n2)c1	-3	-0.4	12	-1%	.
Cc1ccc(-c2nnc(SCC(=O)Nc3ccccc3N3CCOCC3)o2)cc1	.	-1.5	20	4%	-25
O=C(O)c1ccc(/C=N/n2cc(-c3ccccc3)[nH]c2=S)cc1	-5	0.4	.	4%	.
COc1ccc(C2C(C(=O)Nc3cc(OC)c(OC)c(OC)c3)c3ccccc3C(=O)N2C)cc1OC (stereo not drawn)	1	-1.1	-2	-3%	.
CSc1nnc(-c2ccncc2)n1CCCN1CCCC1=O	-3	1.1	.	-2%	-36
CC(=O)c1sc(N/N=C\c2ccc(C)cc2)nc1C	98	1.9	10	30%	-28
CCCCCC(C(=O)O)C(C)CC(=O)NC1CCCCC1 (stereo not drawn)	2	-8.6	6	4%	-25
O=C(O)c1cnc2[nH]c3ccccc3n2c1=O	-7	-3.1	.	3%	.
CCc1ccccc1NC(=O)CN(C)C(=O)CSc1nnc(Nc2cccc(C)c2)s1	1	3.7	-14	6%	-3
COc1ccc(-n2nc(C(=O)NCC(=O)N3CCCC3)c3ccccc3c2=O)cc1	2	-0.3	.	.	.
CCOC(=O)c1ccccc1NC(=O)CN(c1ccccc1OCC)S(C)(=O)=O	-7	2.9	-4	-6%	-34	Arbovirus anti repeat=-2
CCC/C=C1/CCCOC(C(=O)NCCNCCO)(C(F)(F)F)C1 (stereo not drawn)	4	0.7	.	-6%	.
COc1cc(C(=O)NNC(=O)C2CC=CCC2C(=O)O)cc(OC)c1OC (stereo not drawn)	-2	-1.6	-1	-1%	-30
CCc1ccc(NC(=O)C(NS(=O)(=O)c2ccc3c(c2)CCN3C(C)=O)C(C)C)cc1 (stereo not drawn)	-5	0.9	.	.	.
COc1ccc(N2CCN(C(=O)c3ccc(CS(=O)(=O)c4ccccc4C)o3)CC2)cc1	-6	0.1	.	.	.
COc1ccc(C(=O)Nc2ccccc2C(=O)NCc2cccnc2)cc1OC	-2	1.7	.	.	.
CCCc1cc(Nc2ccccc2OCC)n2ncnc2n1	2	0.1	-9	-5%	-4
CC1CCN(c2ccc3nnc(CCC(=O)NCc4ccco4)n3n2)CC1	1	-1.7	.	.	.
Cc1ccc(S(=O)(=O)c2nnn3c2nc(N2CCOCC2)c2ccccc23)cc1	1	-2.7	.	.	.
Cc1oc(-c2nc3ccccc3n2C)cc1C(=O)c1ccccc1	72	.	-1	7%	-26
CCc1nnc(NC(=O)Nc2ccc(Cl)cc2)s1	-8	-2.1	15	3%	.
Cc1n[nH]c(C)c1S(=O)(=O)N1CCc2ccccc21	-7	9.0	-2	-10%	-10
COc1cc(NC(=O)c2ccc(OC)c([N+](=O)[O-])c2)ccc1NC(=O)c1cccs1	-4	9.2	0	0%	-19
Cn1cnnc1Sc1nc2c(c(=O)n(C)c(=O)n2C)n1C	3	1.2	.	0%	-23
O=C1C2CCCN2C(c2ccc(Br)cc2)N1c1ccc(F)cc1 (stereo not drawn)	-2	0.8	15	-6%	-12	Arbovirus anti repeat=3
O=C(CSc1nc2ccccc2o1)Nc1nc(-c2ccccc2)cs1	91	8.2	-4	28µM*	-8
O=C1NC2=C(C(=O)CCC2)C(c2ccccc2)N1 (stereo not drawn)	4	-4.3	.	.	.
Cc1ccc(P(C)(=O)c2ccc(C)cc2)cc1	-5	0.6	9	-14%	15
